Bioassay records deposited in PubChem BioAssay by National Center for Advancing Translational Sciences (NCATS).
NS1 inh – blocks influenza NS1 protein function | S. cerevisiae slowed by influenza A NS1, growth recovery by OD600 | AID 2326 | Potency, µM (series often up to 46.1 µM), for the others: top-dose activity, positive = more growth | 0.4% of 270,000 active; active means well fitted rising curve with a large enough effect; inconclusive means small, poorly fitted or top-dose-only effect; inactive means no such curve, though single readings can be large or run the other way; note: nearly all actives have a fitted effect of over 50% in size
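OD600 was taken as the measure of yeast growth restored by compound in an NS1-expressing S. cerevisiae strain. Cells had been washed out of glucose medium and diluted 1:100 into galactose -URA medium, pH 6.0.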
LASV entry inh – blocks Lassa virus binding to or entry into cells. Potency, µM (series often up to 37.9 µM), for inactives: at the top dose activity change, negative = inhibition, most hits filed as inhibitors. Lassa virus pseudotype entry inhibition, cell reporter; control for the full effect not named in the record. 1.2% of 300,000 active; active means well fitted inhibition curve with a large enough effect; inconclusive means small, poorly fitted or top-dose-only effect, or effect the other way; inactive means flat fitted curve, though single readings scatter; tested in HEK293 cells; note: % is set by controls: 0 for no effect and ±100 for the full control effect; nearly all actives have a fitted effect of over 50% in size; luciferase read-out
SARS PLP yeast – blocks SARS-CoV papain-like protease in a yeast assay | S. cerevisiae expressing SARS-CoV PLpro, growth rescue; control for the full effect not named in the record | Potency, µM (doses to about 32.9 µM), inactives show top-dose activity, positive = growth rescue | 0.19% of 330,000 active; active means well fitted rising curve with a large enough effect; inconclusive means small, poorly fitted or top-dose-only effect; inactive means no such curve, though single readings can be large or run the other way; note: 0% is about no effect; nearly all actives have a fitted effect of over 55% in size; growth read by luminescence after 48 h
RE007 growth inh – less growth of the S. pombe RE007 Vpr strain. S. pombe RE007 Vpr strain, BacTiter-Glo ATP luminescence, 24 h; control for the full effect not named in the record. AID 651644. Potency, µM (doses to about 92.2 µM), without a hit: at the top dose activity change, negative = less growth. 0.21% of 360,000 active; active = well fitted falling curve with a large enough effect; inconclusive = small, poorly fitted or top-dose-only effect; inactive = no such curve, though single readings can be large or run the other way;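 note: % is set by controls: 0 for no effect and ±100 for the full control effect; nearly all actives have a fitted effect of over 50% in size; the assay follows cell death caused by Vpr and the record does not say whether a fall means rescue or toxicity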
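Fission yeast RE007 carrying one integrated HIV-1 vpr copy, seeded at OD 0.01 in PMG+AL medium with 23 nL pinned compound. Grown 24 h at 30 degrees; viability read by BacTiter-Glo luminescence after 5 min.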
Marburg entry inh – Marburg virus entry inhibition. AID 540276. Potency, µM (doses to about 37.8 µM), for the others: at the top dose activity change, negative = inhibition, actives largely listed as inhibitors. Marburg virus pseudotyped entry inhibition, cell reporter; control for the full effect not named in the record; about a third of the inactives were read at about 46 µM. 1.8% of 300,000 active; active = well fitted inhibition curve with a large enough effect; inconclusive = small, poorly fitted or top-dose-only effect, or effect the other way; inactive = flat fitted curve, though single readings scatter; tested in HEK293 cells; about a fifth of its hits are not listed in these tables; note: % is set by controls: 0 for no effect and ±100 for the full control effect; luciferase read-out
Cruzain inh Det – inhibitors of Trypanosoma cruzi cruzain with detergent; purified cruzain, Z-FR-AMC fluorescence, 0.01% Triton; 0.43% of 200,000 active; Potency, µM, without a hit: max response, negative = inhibition, hits mostly inhibitors; P25779;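 note: plate controls were neutral wells for no effect and buffer without enzyme for full effect; nearly all actives have a fitted effect of over 40% in size; top concentration of the series not given in the record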
Target sequence (P25779 123-467 limits assumed): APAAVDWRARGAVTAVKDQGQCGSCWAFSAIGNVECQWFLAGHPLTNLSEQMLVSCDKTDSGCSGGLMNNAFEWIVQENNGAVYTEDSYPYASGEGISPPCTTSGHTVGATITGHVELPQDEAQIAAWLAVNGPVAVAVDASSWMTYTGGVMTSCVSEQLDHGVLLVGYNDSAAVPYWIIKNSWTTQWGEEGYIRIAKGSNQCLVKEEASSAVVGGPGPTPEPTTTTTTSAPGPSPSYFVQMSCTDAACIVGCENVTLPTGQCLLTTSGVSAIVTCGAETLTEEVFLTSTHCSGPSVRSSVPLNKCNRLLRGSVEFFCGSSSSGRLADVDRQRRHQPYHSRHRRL
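Detergent-containing arm of a paired screen for aggregation-based inhibition: 0.01% Triton X-100 present. Cruzain at 1.5 nM cleaved 2 uM Z-FR-AMC at pH 5.5 with 5 mM DTT; AMC fluorescence gain over 60 s measured activity.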
Cruzain inh noDet – blocks cruzain activity in detergent-free assay. P25779. purified cruzain, Z-FR-AMC fluorescence, no detergent. Potency, µM, for inactives: max response, negative = inhibition, hits mostly inhibitors. 2.3% of 200,000 active;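 note: plate controls were enzyme without inhibitor for no effect and buffer without enzyme for full effect; nearly all actives have a fitted effect of over 40% in size; top concentration of the series not given in the record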
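Detergent-free condition (0.00005% Triton X-100) in acetate buffer pH 5.5 with DTT. 1.5 nM enzyme and compound were pre-mixed 15 min, then 2 uM Z-FR-AMC substrate added; reaction progress from fluorescence change between first and third reads (60 s).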
StopGo reporter – lowers the luciferase signal of an FMDV 2A StopGo reporter | human cells with a luciferase reporter of 2A StopGo recoding; control for the full effect not named in the record | Potency, µM (titrated, usually from 57.9 µM), for inactives: at the highest dose signal change, negative = less light | 1.2% of 410,000 active; active = well fitted falling curve with a large enough effect; inconclusive = small, poorly fitted or top-dose-only effect; inactive = no such curve, though single readings can be large or run the other way; tested in HEK293T cells; note: % is set by controls: 0 for no effect and ±100 for the full control effect; nearly all actives have a fitted effect of over 45% in size; luciferase light after 4 h
The depositor's hits bear a star; u = inconclusive; x = not tested or not shown; & = joins results of further samples; [ ] = remark or other dose. Unless noted, calls come from the whole dose curve; as a rule, active = well fitted curve in the direction sought with a large enough effect; inconclusive = small, poorly fitted or top-dose-only effect, or another doubt; inactive = no such curve, though single readings can be large; an effect the other way counts as inactive or inconclusive. Potency is the fitted concentration of half-maximal effect.

SMILES	NS1 inh	LASV entry inh	SARS PLP yeast	RE007 growth inh	Marburg entry inh	Cruzain inh Det	Cruzain inh noDet	StopGo reporter
Cc1nc(N2CCC3(CC2)OCCO3)c2nnn(Cc3ccccc3F)c2n1	-31%	0%	-14%	12%	18%	-6.6%	7%	-18%
CCc1ccc2occ(CC(=O)Nc3sc4c(c3C(=O)OC)CCC4)c2c1	x	u	x	x	u	-4.1%	-27%	-17%
Cc1ccc(NC(=O)CSc2cc(=O)n(C)c3ccc(Cl)cc23)c(Br)c1	x	21%[46.1 µM]	x	x	-6%[46.1 µM]	1.1%	-8%	-17%
O=[N+]([O-])c1ccc(N=Cc2ccc(Br)c([N+](=O)[O-])c2)cc1	-25%	-18%	-13%	-18%	-13%	-6.3%	7%	-18%
CCOC(=O)CSc1n[nH]c(NC(=O)c2ccccc2)n1	-7%	0%	-2%	5%	u	1.9%	-2%	34%[activator]
CC(C)CCC(C)N=Cc1c(O)n(Cc2ccccc2)c(=O)c2ccccc12 (stereo unspecified)	-2%	-10%	-5%	14%	13µM*	0.5%	u	-5%
COCCn1cnnc1SCC(=O)Nc1cc(OC)c([N+](=O)[O-])cc1C	1%	-16%[46.1 µM]	-3%	15%	2%[46.1 µM]	x	x	-7%
Cc1ccc2oc(=O)c3cc(C(=O)NCCCN4CC(C)CC(C)C4)sc3c2c1 (stereo unspecified)	-8%	u	4%	1%	u	x	x	-14%
CCc1ccc(NC(=O)CSc2nc3c([nH]c4ccccc43)c(=O)n2-c2ccc(C)cc2)cc1	x	u	x	x	x	-2.4%	u	0%
CS(=O)(=O)c1ccc(C(=O)NCC2(N3CCCCC3)CCCCC2)cc1	u	1%	0%	-1%	8%	9.2%	13%	-5%
Cc1ccc(NC(=O)c2sc3nc(C)nc(N4CCN(c5ccccn5)CC4)c3c2C)c(C)c1	-6%	-26%	-2%	-29%	11µM*	x	x	-25%
CSc1ccc(-c2nc(CSCC(=O)NCCCN3CCOCC3)c(C)o2)cc1	-6%	7%	7%	-2%	4%[46.1 µM]	-2.3%	6%	-18%
FC(F)(F)c1ccc(-c2csc(-c3ccno3)n2)cc1	0%	x	-1%	-28%	x	x	x	28%
CCOC(=O)N1CCN(CC(O)COc2c(C)cccc2C)CC1 (stereo unspecified)	0%	1%	-13%	4%	1%	3.0%	-1%	20%
O=C(c1ccco1)N1CCN(C23CC4CC(CC(C4)C2)C3)CC1	-1%	22%[46.1 µM]	-1%	-2%	u	x	x	32%[activator]
COc1cccc(CCC(=O)Nc2cc3c(cc2C(=O)O)OCCCO3)c1OC	x	6%	-3%	2%	0%	x	x	20%
Cc1cccc(NC(=O)CSc2cn(CC(=O)N3CCOCC3)c3ccccc23)c1	x	28%[46.1 µM]	x	x	x	0.1%	-14%	2%
Cc1cc(N2C(=O)C3CC=CC(C)C3C2=O)no1 (stereo unspecified)	8%	-14%	5%	15%	6%	-2.7%	7%	-6%
CC1Oc2ccccc2N(CC(=O)NCc2ccccc2)C1=O (stereo unspecified)	1%	x	-1%	2%	x	x	x	66%[activator]
CCOC(=O)c1c(C)[nH]c(C(=O)N2CCN(CC)CC2)c1C	-4%	-4%	7%	7%	8%[46.1 µM]	x	x	5%
O=C(C1CCCN(c2ncnc3c2nc2n3CCCCC2)C1)N1CCN(c2cccc(Cl)c2)CC1 (stereo unspecified)	-15%	x	-13%	6%	x	x	x	u
COC(=O)NC(=S)Nc1ccc(Oc2ccc(Cl)cc2Cl)c(Cl)c1	11%	u	7%	u	u	-4.1%	25µM*	-28%
O=S(=O)(c1ccc2ccccc2c1)n1nc(-c2ccco2)nc1NCc1cccc(Cl)c1	x	-14%[46.1 µM]	x	x	5%[46.1 µM]	-3.3%	-5%	26%
CCc1ccc(CNC(=O)c2cnc(N3CCCCC3)c3ccccc23)cc1	x	u	x	x	x	-19%	-7%	0%
O=C(CSc1nc2ccccc2c(=O)n1CCCN1CCOCC1)Nc1ccc(Br)cc1	x	-10%[46.1 µM]	2%	-4%	u	x	x	-13%
COc1ccc(-c2c(C)nn3c(N4CCC(C(=O)NCCC(C)C)CC4)cc(C)nc23)cc1OC	x	-3%[46.1 µM]	x	x	19%[46.1 µM]	0.7%	5%	-22%
COc1cccc(/C=N/n2c(N)nc3ccccc32)c1OC	-56%	-1%	-10%	-10%	u	-15%	2%	x
COc1ccccc1S(=O)(=O)Cc1ccc(C(=O)NCc2ccc(Cl)cc2)o1	x	-26%[46.1 µM]	x	x	-6%[46.1 µM]	-1.5%	-9%	0%
Cc1cc(=O)n2nc(N3CCC(C(=O)NC(C)c4ccccc4)CC3)sc2n1 (stereo unspecified)	0%	1%	-3%	21%	u	-0.7%	12%	19%
Cc1cccc(C2Nc3ccccc3C(=O)N2NC(=O)c2ccc([N+](=O)[O-])cc2)n1 (stereo unspecified)	-15%	-4%	18%	-15%	u	-0.3%	-2%	-24%
CC1CCCC(NC2CCCCNC2=O)C1 (stereo unspecified)	-4%	15%	10%	7%	-12%	2.1%	1%	-6%
CCc1ccc(-n2c(SCc3ccccc3C)nc3[nH]ncc3c2=O)cc1	x	-30%[46.1 µM]	x	x	x	-9.5%	-10%	-22%
COC(=O)c1c(C)oc(C)c1S(=O)(=O)Nc1ccc(C(C)C)cc1	-10%	2%	-8%	14%	u	x	x	-4%
O=C(CN1C(=O)COc2ccccc21)N(Cc1cccnc1)Cc1ccccc1F	-8%	-21%	7%	-2%	-4%&-3%	-1.1%	-5%	-23%
CC1CC(=O)Nc2ccccc2N1C(=O)Nc1ccc(F)cc1F (stereo unspecified)	4%	x	1%	3%	x	x	x	-1%
COc1ccc(OC)c(CN2CCN(C(=O)CCNC(=O)c3ccc(Br)cc3)CC2)c1	x	4%	1%	3%	-37%	x	x	-10%
O=C(Nc1nc2ccccc2[nH]1)c1cccc(S(=O)(=O)N2CCOCC2)c1	-16%	3%	-1%	-6%	-4%	-6.2%	-8%	35%[activator]
CN(C)Cc1cc(CCNC(=O)c2ccc(Cl)cc2)ccc1O	u	0%	3%	-5%	-40%	5.3%	-14%	-10%
NC(=O)c1ccccc1OCC(=O)c1ccc(Cl)cc1	x	u	4%	22%	u	x	x	-12%
Cc1cc(SCCOc2ccccc2)nc(N)n1	-75%	0%	-23%	u	u	-1.3%	1%	31%[activator]
CC(C)NCC(O)COc1ccc(COCCOC(C)C)cc1 (stereo unspecified)	u	u	x	7%[18.4 µM]	u	3.6%	-4%	-4%
CCS(=O)(=O)c1ccc2c(c1)N(S(C)(=O)=O)CC(C(=O)NCc1ccccc1OC)O2 (stereo unspecified)	0%	-2%	5%	-14%	6%	1.3%	-2%	-16%
CCCCOC(=O)CCN1C(=O)/C(=C2\SC(=S)N(CCC(=O)OCCCC)C2=O)SC1=S	-1%	u	15%	2%	2%	-20%	13µM*	-15%
O=c1c2[nH]c3ccccc3c2nc(SCc2ccccc2F)n1-c1ccc(F)cc1	x	-6%[46.1 µM]	x	x	x	-1.3%	-7%	-4%
O=c1c2ccccc2[nH]c2ccccc12	-24%	0%	-39%	-11%	4%	0.4%	u	-27%
CNS(=O)(=O)/C=C/c1ccccc1	5%	20%	2%	-1%	u	x	x	13%
Cc1ccc(CNC(=O)C2CCCN(Cc3nc(-c4cccc(C)c4)oc3C)C2)cc1 (stereo unspecified)	x	0%[46.1 µM]	x	x	-14%[46.1 µM]	9.9%	24%	u
Cc1ccccc1C(=O)Nc1ccc(S(=O)(=O)N2CCCC2)cc1	-17%	2%	-4%	16%	u	x	x	-4%
O=C(NCc1ccc(F)cc1)NC(=O)c1ccc(Cl)cc1	9%	5%[46.1 µM]	0%	5%	u	x	x	-12%
COc1cccc(Cc2nc3ccccc3nc2SCC(=O)NCc2ccc(C)cc2)c1	x	u	x	x	x	2.4%	u	-1%
Cc1sc2nc(C3CC3)nc(N3CCN(C(=O)c4ccc(Cl)cc4)CC3)c2c1C	-6%	u	-35%	-6%	u	x	x	u
CCc1ccc(C(=O)COC(=O)C2CCN(c3ccc(C(F)(F)F)cn3)CC2)cc1	x	9%	-5%	-20%	26%	x	x	-18%
COCCCNC(=O)C1CCC(Cn2c(=O)c3sccc3n(Cc3ccc(F)cc3)c2=O)CC1 (stereo unspecified)	x	22%[46.1 µM]	x	x	x	-1.1%	0%	-19%
CCC(C)[C@@H](C(=O)NCC1CCC(C(=O)O)CC1)n1nnc2ccccc2c1=O (stereo partly specified)	0%	-6%	5%	-3%	u	-7.2%	2%	-21%
CCCCCCCC(=O)Oc1ccc(C(=O)Nc2cc(C)on2)cc1	5%	u	0%	7%	u	x	x	35%[activator]
O=C1CSC(c2ccc([N+](=O)[O-])cc2)N1c1ccccc1F (stereo unspecified)	1%	x	1%	11%	x	x	x	-21%
COc1ccc([N+](=O)[O-])cc1C(=O)Nc1ccc(OCC(=O)N2CCOCC2)cc1	9%	-2%	11%	5%	14%	1.2%	-1%	-24%
CCc1ccc(NC(=S)N(Cc2cccnc2)Cc2ccco2)cc1	x	-27%	-6%	-20%	-14%[46.1 µM]	x	x	u
CCOc1ccc(C2NC(=O)c3c(COC)cc(C)nc3N2Cc2ccccc2)cc1OC (stereo unspecified)	x	-2%[46.1 µM]	x	x	13%[46.1 µM]	-1.6%	-4%	-10%
O=S(=O)(c1ccc2c(c1)OCCO2)N1CCNCC1	0%	x	2%	10%	x	x	x	-10%
O=C(CSc1ccccn1)Nc1ccc2c(c1)OCO2	-6%	8%	-5%	9%	u	x	x	13%
CCc1ccc(NC(=O)Cn2c(=O)ccc3cc(S(=O)(=O)N4CCCC4)ccc32)cc1	x	4%[46.1 µM]	x	x	x	-0.6%	0%	-17%
COc1cccc(CNC(=O)CN2C(=O)COc3ccc(S(=O)(=O)N4CCCC4)cc32)c1	-3%	-1%[46.1 µM]	u	-7%	15%[46.1 µM]	x	x	-15%
